STAT1 act: increases IFN-gamma driven STAT1 reporter signal. NIH 3T3 STAT1-luciferase reporter, luminescence; 100% = IFN-gamma alone, no compound. activation (% of control), % at 5.5 µM. actives 2.6% (n = 200,000);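 active = activation above the screen-wide mean activation plus 3 SD, cut at about 130% in these data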;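 note: raw ratio to IFN-gamma control signal so 100% means no change and 0% no light; values of inactives mirror those of a sister screen read the other way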
G6PDH counter: counter-screen for G6PDH assay hits: L. mesenteroides G6PDH inhibition; Purified L. mesenteroides G6PDH, diaphorase/resazurin coupled fluorescence, 45 min; actives 0.12% (n = 200,000); inhibition, % at 5 µM; in the data active = inhibition above about 50%
Hsp70 act: transcriptional activators of Hsp70. actives 0.04% (n = 200,000). HeLa Hsp70 promoter luciferase reporter, luminescence; scaled: vehicle 0, proteasome-inhibitor control 100%. activation, % at 10 µM;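 active = activation above the mean across all tested compounds plus 3 SD, cutoff set per campaign, cut at about 5.5% in these data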;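 note: 100% = MG132 at 30 µM as the positive control and 0% = DMSO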
DTT redox prof: compounds producing H2O2 with reducing agent – biochemical, NIH compound library profiling, artefact control for MLSCN library redox annotation, primary screen | activation, % at 10 µM | AID 878 | DTT-dependent redox cycling H2O2, phenol red/HRP absorbance; 100% = 100 µM peroxide control, 0% = buffer | actives 0.03% (n = 200,000);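 active = activation of at least 50% relative to the plate's high and low controls in the primary single-dose screen; inactive = activation below 50%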;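 note: compound incubated with DTT at 0.8 mM final as the reducing agent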
Efa HMGR inh: blocks class II HMG-CoA reductase of Enterococcus faecalis. purified E. faecalis HMGR, NADPH absorbance 340 nm kinetic. inhibition, % at 10 µM. actives 0.41% (n = 190,000);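 active = inhibition above a set limit, the median over all tested compounds plus 3 SD, cut at about 9.5% in these data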;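 note: enzyme runs in reverse so mevalonate oxidation gives rising NADPH absorbance; 0% = complete reaction with DMSO and 100% = background rate lacking mevalonate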
The depositor's hits bear a star; & = joins results of further samples. Only part of the results is shown; count on the stated rates, not on these rows.

Start of the listing, in advance, 2 compounds:
How did CN(C)[C@@H]1C(=O)C(C(N)=O)=C(O)[C@@]2(O)C(=O)C3=C(O)c4c(O)cccc4[C@@](C)(O)[C@H]3[C@H](O)[C@@H]12 do in these assays?
STAT1 act: 107.7; G6PDH counter: 40.6; Hsp70 act: -0.3; DTT redox prof: 2.6; Efa HMGR inh: 4.8

What do the screens show for `C[N+]1(C)[C@@H]2CC(OC(=O)[C@H](CO)c3ccccc3)C[C@H]1[C@@H]1O[C@@H]12` (some centres undefined)?
STAT1 act: 97.2; G6PDH counter: 10.3&0.5; Hsp70 act: -0.4&0.3; DTT redox prof: -1.1; Efa HMGR inh: -9.3&4.4

All compounds of this part, previewed entries included:
How did CN(C)[C@@H]1C(=O)C(C(N)=O)=C(O)[C@@]2(O)C(=O)C3=C(O)c4c(O)cccc4[C@@](C)(O)[C@H]3[C@H](O)[C@@H]12 do in these assays?
STAT1 act: 107.7; G6PDH counter: 40.6; Hsp70 act: -0.3; DTT redox prof: 2.6; Efa HMGR inh: 4.8

What do the screens show for `C[N+]1(C)[C@@H]2CC(OC(=O)[C@H](CO)c3ccccc3)C[C@H]1[C@@H]1O[C@@H]12` (some centres undefined)?
STAT1 act: 97.2; G6PDH counter: 10.3&0.5; Hsp70 act: -0.4&0.3; DTT redox prof: -1.1; Efa HMGR inh: -9.3&4.4

How did NCC1(CC(=O)O)CCCCC1 do in these assays?
STAT1 act: 90.0; G6PDH counter: 14.8; Hsp70 act: -0.2; DTT redox prof: -0.2; Efa HMGR inh: -6.5

How did CCCC(C)(COC(N)=O)COC(=O)NC(C)C (centres undefined) do in these assays?
STAT1 act: 111.5; G6PDH counter: 9.2; Hsp70 act: -0.2; DTT redox prof: 0.3; Efa HMGR inh: -0.5

Results for CC1CCC/C=C/C2CC(O)CC2C(O)/C=C/C(=O)O1 (centres undefined) ?
STAT1 act: 52.1; G6PDH counter: 4.6; Hsp70 act: -0.6; DTT redox prof: 0.3; Efa HMGR inh: 1.0

What do the screens show for `CC(C)(C)c1cc([N+](=O)[O-])cc(C(C)(C)C)c1O`?
STAT1 act: 44.2; G6PDH counter: -6.8; Hsp70 act: -0.4; DTT redox prof: -0.9; Efa HMGR inh: -1.5

How did Cc1ccc(C2C(S(C)(=O)=O)=C(O)C(=O)N2c2ccccc2)cc1 (centres undefined) (tested in a mixture with another compound) do in these assays?
STAT1 act: 112.8; G6PDH counter: 3.1; Hsp70 act: -0.2; DTT redox prof: -0.3; Efa HMGR inh: 4.5

What do the screens show for `Cc1cccc(C)c1NC1=NCCCS1`?
STAT1 act: 97.3; G6PDH counter: -2.8; Hsp70 act: -0.3; DTT redox prof: 1.4; Efa HMGR inh: -2.5

Ordered by heavy-atom count (high to low): three of the compounds above.
What do the screens show for `C[N+]1(C)[C@@H]2CC(OC(=O)[C@H](CO)c3ccccc3)C[C@H]1[C@@H]1O[C@@H]12` (some centres undefined)?
STAT1 act: 97.2; G6PDH counter: 10.3&0.5; Hsp70 act: -0.4&0.3; DTT redox prof: -1.1; Efa HMGR inh: -9.3&4.4

What do the screens show for `Cc1cccc(C)c1NC1=NCCCS1`?
STAT1 act: 97.3; G6PDH counter: -2.8; Hsp70 act: -0.3; DTT redox prof: 1.4; Efa HMGR inh: -2.5

How did NCC1(CC(=O)O)CCCCC1 do in these assays?
STAT1 act: 90.0; G6PDH counter: 14.8; Hsp70 act: -0.2; DTT redox prof: -0.2; Efa HMGR inh: -6.5
